High-throughput results from PubChem BioAssay.
ugtP null kill: compounds lethal to S. aureus RN4220 ugtP deletion mutant. growth inhibition, % (no concentration beside the values). OD600 growth, 16 h; some inactives read as strong as hits. 0.54% of 330,000 active;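 active means z-score under -3 and OD600 up to 0.15 on both plates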;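 further: plate controls were untreated wells for no effect and antibiotic for full effect; wells of about 80 µL received 100 nL stock; the first replicate is given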
RN4220 kill: S. aureus RN4220 growth inhibition. OD600, 16 h. inhibition, % (concentration not given with the values). 0.33% of 330,000 active. AID 1259311;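 active means z-score of -3 or lower and OD600 up to 0.18 on both plates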;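 further: plate controls were untreated cells for no effect and reference antibiotic for full effect; stock transfer was 100 nL into about 80 µL; one replicate is shown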
Autofluor counter: counter-screen for toxin protease inhibitors: compound fluorescence | compound autofluorescence counterscreen, microsphere flow cytometry; stronger effect = higher value | fluorescence intensity (test concentration not listed) | 3.1% of 360,000 active | AID 624483;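 active means at least 3 SD above the mean of all compounds, about 16000 in these data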;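 further: 100 nL of 1 mM stock went into each well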
Mtb hypoxia inh: reduces hypoxia-regulated biosensor signal in M. tuberculosis; AID 1159583; M. tuberculosis hypoxia-regulated fluorescent reporter, fluorescence; 0.1% of 300,000 active; fluorescence inhibition, % (no concentration beside the values);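 active means 35 to 45% if threefold the growth effect, above 45% if 1.5-fold the growth effect; inactive means the rest, general growth blockers included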;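 further: wells of about 50 µL received 100 nL stock; 0% = vehicle wells and 100% = reference inhibitor wells; whole bacteria with a GFP reporter of the hypoxia response; strong numbers were not always called active; many hits fall short of the cut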
BJeLR lethal: kills HRASV12-expressing BJeLR cells; BJeLR (HRASV12) viability, CellTiter-Glo ATP luminescence, 48 h; reference of the scale not given here; inhibition, % (no concentration beside the values); 0.17% of 300,000 active; AID 1554;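 active means replicate mean above 50%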;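 further: 50 nL library stock added to about 25 µL; numbers are from one replicate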
PrP 5UTR inh: inhibition of PrP 5' UTR reporter expression; cell-based PrP 5' UTR mRNA reporter, plate reader; inhibition, % (test concentration not listed); 0.35% of 340,000 active;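 active means every replicate at 50% or more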;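 further: 0 = median of the neutral control wells; tested in H4 reporter cells; numbers are from one replicate; inactives centre near -14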
Mtb hypoxia inh growth: recorded beside Mtb hypoxia inh, whose call it bears; growth inhibition, %; measured here: M. tuberculosis growth (absorbance);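 0% = vehicle and 100% = reference antibiotic; read after six days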
Starred values were filed as active, the others as inactive; nt = not tested or not shown. No enrichment for hits; overall some 4% were active at least once.

SMILES	ugtP null kill	Mtb hypoxia inh	PrP 5UTR inh	RN4220 kill	BJeLR lethal	Mtb hypoxia inh growth	Autofluor counter
CCCCn1c(-c2cccc(F)c2)nc2c1c(=O)[nH]c(=O)n2CC(C)C	6.0	3.1	-23.8	2.2	-4.5	3.1	3843
Cc1oc(-c2ccccc2)cc1C(=O)NC1CCN(Cc2ccccc2)CC1	15.8	18.8	nt	0.6	-9.7	-3.0	5292
COc1ccc(NC(=O)C23CC4CC(CC(Cl)(C4)C2)C3)cc1S(=O)(=O)N1CCOCC1	1.5	0.6	-22.5	3.4	nt	11.7	4300
O=C(Nc1nnc(-c2ccc(F)cc2)s1)Nc1ccccc1F	2.0	-1.7	nt	2.8	4.0	0.2	5718
COc1ccc(N2CCN(CCC(O)c3ccc4ccccc4c3)CC2)cc1 (configuration not stated)	17.8	-16.6	-2.8	3.5	-4.9	-2.0	3618
O=C1C(Cl)=C(NCCc2ccccc2)C(=O)c2ccccc21	13.3	13.6	-52.4	36.9	nt	15.8	3288
O=C(NCC(c1ccco1)N1CCCCC1)c1cccc(S(=O)(=O)Nc2ccc(F)cc2)c1 (configuration not stated)	1.6	1.4	-13.4	1.9	nt	-0.5	5931
CC(C)N(C(=O)COC(=O)[C@H](C)NC(N)=O)c1ccccc1	0.2	-1.2	-6.7	-0.4	-6.6	1.1	3221
O=C(/C=C/c1ccc(N2CCC(c3ccccc3)=N2)cc1)c1ccccc1	-9.2	2.9	nt	-8.2	3.2	4.6	nt
Cc1ccnc(N/C=C(\C#N)c2nc(-c3cccc(Br)c3)cs2)c1	-7.5	-1.3	-10.9	14.7	11.3	44.8	8599
COc1ccccc1CNC(=O)CCNS(=O)(=O)/C=C/c1ccc(C)cc1	-1.9	-2.4	-10.8	6.6	nt	0.5	9024
CC1CN(C(=O)c2cccs2)CCN1C(=O)c1cccs1 (configuration not stated)	2.6	nt	-18.9	-1.4	-2.8	nt	4815

Part of the list above in order of SMILES length, rising:
SMILES	ugtP null kill	Mtb hypoxia inh	PrP 5UTR inh	RN4220 kill	BJeLR lethal	Mtb hypoxia inh growth	Autofluor counter
O=C1C(Cl)=C(NCCc2ccccc2)C(=O)c2ccccc21	13.3	13.6	-52.4	36.9	nt	15.8	3288
COc1ccccc1CNC(=O)CCNS(=O)(=O)/C=C/c1ccc(C)cc1	-1.9	-2.4	-10.8	6.6	nt	0.5	9024
O=C(/C=C/c1ccc(N2CCC(c3ccccc3)=N2)cc1)c1ccccc1	-9.2	2.9	nt	-8.2	3.2	4.6	nt

Some entries already given with just Mtb hypoxia inh growth and Mtb hypoxia inh.
| SMILES | Mtb hypoxia inh growth | Mtb hypoxia inh |
| --- | --- | --- |
| COc1ccc(NC(=O)C23CC4CC(CC(Cl)(C4)C2)C3)cc1S(=O)(=O)N1CCOCC1 | 11.7 | 0.6 |
| O=C(Nc1nnc(-c2ccc(F)cc2)s1)Nc1ccccc1F | 0.2 | -1.7 |
| COc1ccc(N2CCN(CCC(O)c3ccc4ccccc4c3)CC2)cc1 (configuration not stated) | -2.0 | -16.6 |
| O=C1C(Cl)=C(NCCc2ccccc2)C(=O)c2ccccc21 | 15.8 | 13.6 |
| O=C(NCC(c1ccco1)N1CCCCC1)c1cccc(S(=O)(=O)Nc2ccc(F)cc2)c1 (configuration not stated) | -0.5 | 1.4 |
| CC(C)N(C(=O)COC(=O)[C@H](C)NC(N)=O)c1ccccc1 | 1.1 | -1.2 |

(cont.)
SMILES	ugtP null kill	Mtb hypoxia inh	PrP 5UTR inh	RN4220 kill	BJeLR lethal	Mtb hypoxia inh growth	Autofluor counter
Cc1ccc(C)c(NC(=O)C2CCCN(S(=O)(=O)c3ccc4[nH]c(=O)ccc4c3)C2)c1 (configuration not stated)	2.3	nt	-13.8	3.2	1.5	nt	5725
CC(C)C(C(=O)NCC1CCCO1)N(Cc1ccco1)C(=O)CNS(=O)(=O)c1ccccc1 (configuration not stated)	5.9	nt	-24.1	-1.6	-5.0	nt	2380
C=CCc1cc(Cl)ccc1OCCCNC(C)CC (configuration not stated)	nt	nt	-8.0	nt	-17.5	nt	2346
c1ccc2c(OCCCN3CCCCCC3)cccc2c1	0.0	-1.9	-16.5	0.2	-1.0	-6.4	3131
CCN(CC)CCNC(=O)Cn1cnc2sc(C)c(S(=O)(=O)N3CC(C)CC(C)C3)c2c1=O (configuration not stated)	0.0	1.1	-28.5	2.4	2.6	-0.8	4135
Cn1c(=O)n(CCc2ccccc2)c(=O)c2c1nc1n2CCCN1c1ccccc1	3.8	2.8	-16.7	2.2	0.3	6.2	10627
Cn1cc(CN2CCN(c3cnccn3)CC2)c(-c2cccc(Cl)c2)n1	-1.2	4.1	-13.5	4.2	-4.4	10.0	4085
O=C(NC(Cc1ccccc1)C(=O)N1CCCC1C(=O)O)c1ccccc1 (configuration not stated)	-5.4	14.2	-19.9	-7.7	-6.8	14.6	2884
CC(NC(=O)c1ccc2c(c1)C(=O)N(Cc1cccnc1)C2=O)c1ccccc1 (configuration not stated)	2.4	2.1	-3.5	-0.8	-2.7	-0.6	5929
COc1ccc2c(c1O)-c1c(OC)c(OC)cc3c1C(C2)N(C)CC3 (configuration not stated)	2.1	7.4	nt	8.2	nt	-4.8	nt
COc1ccc(CNC(=O)C2CCN(C(=O)Cc3ccccc3)CC2)cc1	9.2	-2.5	-7.5	4.2	-0.3	-5.8	3537
COc1ccc(/C=C/C(=O)NC(C)CCc2ccccc2)cc1OC (configuration not stated)	9.1	-1.8	-3.3	-1.4	-3.0	-4.7	2272
CS(=O)(=O)N(CC(=O)NCc1ccco1)c1ccc(OCc2ccccc2)cc1	2.0	8.9	-15.6	6.4	-0.3	4.1	4569
COc1cccc(-c2nc(-c3ccc4c(c3)NC(=O)CO4)cs2)c1	10.7	9.0	-35.6	-0.8	7.1	0.8	4238
Cc1ccc2nc(C)c(C(=O)N/N=C/c3ccc(N4CCOCC4)cc3)cc2c1	nt	nt	-16.7	nt	-5.2	nt	7894
COc1ccccc1CNC(=O)CS(=O)Cc1nc(-c2ccccc2C)oc1C (configuration not stated)	-6.1	3.0	-14.7	-14.0	-1.1	12.7	4723
Cn1nccc1NS(=O)(=O)c1ccc(F)cc1	1.7	0.1	-23.3	2.4	6.5	-0.5	4240
N#Cc1ccc(CSc2ccc(S(=O)(=O)N3CCCCCC3)cn2)cc1	7.6	8.7	0.4	0.3	nt	2.0	5327
Cn1c(/N=C/c2ccccc2[N+](=O)[O-])nc2ccccc21	nt	nt	-33.1	nt	-6.9	nt	3748
COc1ccc(/C=C/C(=O)c2ccc(O)cc2)cc1CN1CCOCC1	-1.3	8.2	-2.2	-8.0	-2.4	3.2	2340
CC(=O)Nc1cccc(C(=O)OCC(=O)NCc2ccc(F)cc2)c1	1.8	5.8	-7.0	4.6	-14.2	4.3	4124
CCCCOc1ccc(C(=O)NCC(=O)OCC(=O)N2CCN(S(=O)(=O)c3ccc(C)cc3C)CC2)cc1	-8.3	4.8	-21.1	3.5	12.4	-1.2	1950
COc1cccc(-n2nc(C(=O)O)c3ccccc3c2=O)c1	-1.9	-1.5	-8.1	2.8	1.2	2.4	8810
O=C(Nc1cc(Cl)ccc1N1CCOCC1)c1cccnc1	0.0	-1.0	-22.2	-2.3	0.8	2.6	4038
CC1CCCC(C)N1N=Cc1cccc(Br)c1 (configuration not stated)	7.1	1.4	nt	3.8	nt	9.4	nt
O=C(CN(C1CCCCC1)S(=O)(=O)c1ccc(Cl)cc1)NCc1ccncc1	3.9	7.4	-12.7	0.5	-0.3	1.0	11006
Cn1c(=S)c2[nH]c(SCCN)nc2n(C)c1=O	2.9	1.3	-21.0	4.3	nt	4.7	3676
CCc1nnc(NC(=O)C2CCCN2S(=O)(=O)c2ccc(F)cc2)s1 (configuration not stated)	-2.3	4.3	-21.2	3.4	4.3	9.0	4052
O=C1CCCc2oc3c(c21)CCCC3	0.0	1.7	-18.0	3.3	-2.0	0.9	2598
COC(=O)C1=C(C)N=C2SC(C)C(=O)N2C1c1cccc(F)c1 (configuration not stated)	-19.6	nt	-8.1	-9.4	15.7	nt	3075
COc1ccc(-c2csc(N(CCCN(C)C)C(=O)c3ccc(C)cc3)n2)cc1	11.1	-0.1	-9.2	-3.5	5.6	-2.0	3412
CN(C)CCN1C(=O)C(=O)C(=C(O)c2ccc(OCc3ccccc3)cc2)C1c1ccncc1 (configuration not stated)	-3.0	8.9	nt	3.6	nt	1.8	nt
CN(C)CCN(C(=O)/C=C/c1cccs1)c1nc2c(F)cc(F)cc2s1	-26.7	-5.4	-9.0	-9.8	-10.4	-1.7	2420
CC1=NN(C(=O)c2csc(C)c2)C(O)(C(F)(F)F)C1 (configuration not stated)	3.4	-7.6	-12.5	2.2	4.9	0.4	2385
Cc1ccccc1C(=O)O/N=C(\N)c1ccncc1	nt	nt	-90.2	nt	1.9	nt	2122
OCC1(CO)CCCC(CO)(CO)C1O	2.5	17.1	-16.7	-1.8	nt	6.1	3369

Compound profiles, as listed above. Order of values: ugtP null kill, Mtb hypoxia inh, PrP 5UTR inh, RN4220 kill, BJeLR lethal, Mtb hypoxia inh growth, Autofluor counter
CC1CCCC(C)N1N=Cc1cccc(Br)c1 (configuration not stated) as listed: 7.1, 1.4, nt, 3.8, nt, 9.4, nt
CC1=NN(C(=O)c2csc(C)c2)C(O)(C(F)(F)F)C1 (configuration not stated) as listed: 3.4, -7.6, -12.5, 2.2, 4.9, 0.4, 2385

The list goes on.
SMILES	ugtP null kill	Mtb hypoxia inh	PrP 5UTR inh	RN4220 kill	BJeLR lethal	Mtb hypoxia inh growth	Autofluor counter
CC(CC(=O)Nc1cc(C(F)(F)F)ccc1Cl)c1ccccc1 (configuration not stated)	31.2	nt	-9.3	20.8	-1.8	nt	2576
CCN(CC)CCCNc1oc(/C=C/c2ccccc2)nc1C#N	4.1	0.3	nt	1.9	6.9	-2.2	5726
CC(=O)Oc1ccc(-c2csc(Nc3cccc(C)n3)n2)cc1	-3.6	-9.1	-92.7	-7.1	-5.5	3.2	3514
Oc1c(C(c2cccs2)N2CCN(c3cccc(Cl)c3)CC2)sc2ncnn12 (configuration not stated)	0.7	1.8	-19.1	5.1	0.0	8.6	5757
CC(=O)N1CC2(C)CN(C(C)=O)CC(C)(C1)C2O (configuration not stated)	12.5	nt	-12.2	-0.5	2.3	nt	4131
Cc1ccc(S(=O)(=O)N2CCC(C(=O)Nc3ccccc3N3CCCC3)CC2)cc1C	1.4	-1.9	-36.1	-0.5	-9.8	-12.3	nt
Clc1nc(Cl)nc(NCCC2=CCCCC2)n1	2.8	-16.2	-17.9	0.7	2.7	-0.8	3826
Cc1cc([N+](=O)[O-])nn1CC(=O)N/N=C/c1ccc(O)cc1O	nt	nt	-18.3	nt	-15.0	nt	6136
CCOC(=O)c1ccc(CC(=O)c2oc3cc(O)ccc3c2C)o1	2.7	3.9	-38.0	2.2	-2.1	5.1	11555
O=C(Nn1c(-c2ccccc2)nc2ccccc2c1=O)c1ccco1	-1.9	10.4	-18.3	2.7	13.1	18.0	9682
CCOc1ccc(NC(=O)Cn2nnc(C(=O)NCCc3ccc(OC)c(OC)c3)c2N)cc1	-1.4	7.7	-5.1	1.6	-2.3	19.1	4303
C[N+](C)(C)CCN1C(=O)CSC1=O	-4.7	-16.3	-41.7	2.2	4.5	-17.8	4681
O=C1NCCN(Cc2cccc(Oc3ccccc3)c2)C1CC(=O)N1CCCCC1 (configuration not stated)	9.2	2.3	-15.3	3.3	1.7	-0.6	6550
CCOC(=O)CC(C)=NNC(=O)Nc1ccccc1	1.1	11.8	nt	2.9	nt	-2.0	nt
CCCNC(=O)CSc1nc(COc2ccccc2)nc2ccccc12	9.4	3.2	-23.9	7.2	-3.4	1.2	3365
Cc1nnc(NC(=O)C2CCN(S(=O)(=O)c3cc([N+](=O)[O-])ccc3Cl)CC2)o1	-5.5	-0.6	-24.0	0.6	nt	-5.9	3138
COc1cc(C(=O)OCC(=O)NC(=O)NCc2ccccc2)ccc1OC(F)F	-5.6	-6.6	5.9	-3.1	nt	-2.6	4715
Cc1noc(/C=C/c2cccnc2)c1[N+](=O)[O-]	11.1	9.3	10.6	9.0	-0.2	20.4	7439
CCNc1nc(NC(C)(C)C)nc(N2CCCCC2)n1	79.2	-10.3	11.9	6.8	11.0	16.3	2142
CN1CCOC1c1ccc(C2OCCN2C)cc1 (configuration not stated)	3.3	8.3	-3.1	5.8	nt	12.6	3822
COc1ccc(/C=N/NC(=O)c2cc(Br)ccc2O)cc1Cn1cc(Cl)cn1	nt	nt	-26.5	nt	6.5	nt	2165
COc1ccc(OC)c(-c2cc(C(=O)NN=C(C)c3cccnc3)c3ccccc3n2)c1	3.6	12.1	nt	6.7	nt	1.0	nt
